RanGTP-Impb inh: disruptors of Ran-importin-beta complex formation – biochemical, FRET, CFP-Ran, YFP-importin-beta, homogeneous, primary screen. cell-free CFP-Ran/YFP-importin-beta FRET ratio. inhibition, % (test concentration not listed). hit rate 1.1% among 300,000;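 active means most replicates above 15%; inconclusive means exactly half above 15%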;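 further: 0% = DMSO wells and 100% = Ran loaded with GDP instead of GTP; wells of about 40 µL received 100 nL stock; the first replicate is given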
Vif A3G: inhibitors of Vif binding to APOBEC3G peptide, primary screen, biochemical, TR-FRET, GST-Vif 1-94, biotin-A3G peptide, dose response retest (AID 1117319) | TR-FRET GST-Vif / biotin-A3G peptide binding; higher % means a stronger effect; test concentration not given here; strong numbers were not always called active | inhibition, %, or IC50 in µM where a hit was titrated | hit rate 0.57% among 260,000;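 active means above the screen mean plus three standard deviations and confirmed in dose response; inconclusive means results disagree or hit not tested in dose response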;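 further: Vif residues 1-94 fused to GST binding biotinylated APOBEC3G peptide 110-148; 0% = full assay without inhibitor and 100% = GST in place of GST-Vif; retest series ran down from 100 µM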
T cruzi inh: T. cruzi replication inhibition; T. cruzi beta-gal in NIH3T3, luminescence, 90 h; inhibition, % (test concentration not listed); hit rate 1.4% among 300,000; AID 1885;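 active means mean inhibition across valid replicates above about 55%, limit read from the data; inconclusive means mean below that limit but half or more replicates reach it; inactive means mean below it, under half of replicates reach it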;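 further: signal also drops with host cell toxicity which is not excluded here; 0% = plate median of DMSO wells and 100% = zero luminescence signal; higher percent means less beta-gal luminescence so fewer parasites; stock transfer was 50 nL into about 50 µL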
Calb FLC: C. albicans growth modulation with fluconazole; C. albicans CaCi-2 (fluconazole-resistant clinical isolate) + fluconazole, Alamar Blue growth, 48 h; growth inhibition, % (concentration not given with the values); hit rate 0.57% among 300,000; AID 1979;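 active means most replicates above 75%; inconclusive means exactly half above 75%; inactive means most below 75%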;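 further: all wells also contain fluconazole at 8 µg/ml as a sub-toxic cotreatment; 0% = median of DMSO wells and 100% = median of geldanamycin control wells; wells of about 8 µL received 7.5 nL stock; the first replicate is given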
rRNA inh HTS: selective bacterial rRNA inhibition in E. coli; E. coli WT GFP vs humanized-ribosome RFP mutants, fluorescence, 24 h; active compounds read low; DMSO median 0, no signal -100; GFP signal change (wild-type ribosome), % (test concentration not listed); hit rate 1.6% among 350,000;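 active means significant combined selectivity score with lowered wild-type GFP, culture density cut under 30%, mutant RFP and density less affected; inactive means any of these conditions unmet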; further: one replicate is shown; some compounds called inactive have numbers as strong as hits
Beta apoptosis: beta cell apoptosis inhibition. INS-1E cytokine-induced death, ATP luminescence, 48 h; percent of positive-control rescue, neutral wells zero. hit rate 0.8% among 300,000. protection from apoptosis, % (no concentration beside the values);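 active means all replicates at 75% or more, or half of them and the mean; inconclusive means half reach 75% but not the mean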;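 further: 0% = cytokine-treated negative control wells and 100% = positive control rescue; higher means more ATP so stronger rescue from cytokine killing; wells of about 40 µL received 100 nL stock; the first replicate is given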
Bfl-1 A1 inh: inhibitors of the anti-apoptotic protein A1, read as caspase activation | hit rate 0.066% among 330,000 | caspase activation, % (concentration not given with the values) | MEF A1-2A-BIM cells, Caspase-Glo 3/7 luminescence, 3 h; percent of clofoctol response, vehicle zero;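 active means over half of replicate activation scores above 10%, or exactly half above 10 with the replicate mean above 10; inconclusive means replicate mean below 10 yet half the replicates above 10; inactive means over half of replicates below 10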;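 further: wells of about 30 µL received 50 nL stock; many hits fall short of the cut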
AF4-AF9 inh: inhibitors of human MLL-AF4/AF9 interaction. AlphaScreen, biotin-AF4 peptide binding to FLAG-AF9. inhibition, % at 10 µM. hit rate 0.47% among 350,000;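 active means every replicate reaching a set inhibition limit, whatever the replicate mean, cut at about 25% in these data; inconclusive means mean inhibition reaches that limit but some replicates miss it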;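 further: 0% = plate neutral control median and 100% = total signal loss; the record names both 10 and 1 µM as test concentration; the first replicate is given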
Target sequence (P42568 whole entry, looked up): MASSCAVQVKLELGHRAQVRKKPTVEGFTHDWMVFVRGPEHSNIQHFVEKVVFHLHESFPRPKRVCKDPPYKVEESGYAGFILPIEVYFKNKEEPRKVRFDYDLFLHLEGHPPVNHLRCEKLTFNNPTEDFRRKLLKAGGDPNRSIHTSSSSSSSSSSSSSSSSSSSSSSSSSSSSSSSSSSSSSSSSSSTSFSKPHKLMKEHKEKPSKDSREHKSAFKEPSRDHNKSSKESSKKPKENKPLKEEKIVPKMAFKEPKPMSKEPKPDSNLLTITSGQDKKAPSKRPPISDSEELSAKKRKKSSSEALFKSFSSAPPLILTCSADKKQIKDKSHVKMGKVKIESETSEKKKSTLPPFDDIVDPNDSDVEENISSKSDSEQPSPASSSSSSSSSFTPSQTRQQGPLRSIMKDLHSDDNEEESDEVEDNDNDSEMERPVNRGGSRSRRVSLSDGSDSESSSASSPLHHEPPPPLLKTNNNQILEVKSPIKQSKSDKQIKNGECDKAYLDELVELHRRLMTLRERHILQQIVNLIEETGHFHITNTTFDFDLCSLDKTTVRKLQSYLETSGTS
rRNA inh HTS OD600: second read-out of rRNA inh HTS, no call of its own (marks repeat the call); OD600 change, %; measured here: OD600 growth;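 optical density of the mix in the first replicate; 0 = DMSO median and -100 = no signal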
rRNA inh HTS RFP: also measured in rRNA inh HTS; calls as there; RFP signal change, %; measured here: RFP humanized mutant strains;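 first replicate; 0 = DMSO median and -100 = no signal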
Starred values were filed as active, the others as inactive; ? = inconclusive; . = not tested or not shown; & = joins results of further samples.

Values in the order – Vif A3G	rRNA inh HTS OD600	RanGTP-Impb inh	Bfl-1 A1 inh	rRNA inh HTS	AF4-AF9 inh	Calb FLC	rRNA inh HTS RFP	Beta apoptosis	T cruzi inh
[1] C/C(=N\NC(=O)CCc1ccccc1)c1ccc(Br)cc1
→ 1%	9	0.7	2.1	10	4.9	-5	-1.5	0	25
[2] Cn1c(C(=O)N2CCC(C(=O)N3CCOCC3)CC2)cc2sccc21
→ 3%	13	4.3	0.4	15	5.1	5	2.2	-4	3
[3] CCOC(=O)c1cnn(-c2nc(-c3ccc(F)cc3)cs2)c1C(F)(F)F
→ -7%	.	5.5	1.1	.	.	4	.	-4	15
[4] CCC(C(=O)OCC(=O)Nc1ccc(Cl)c(S(=O)(=O)N(C)C)c1)c1ccccc1 (stereo unspecified)
→ ?	-11	-4.1	1.3	-10	4.1	-2	12	.	-34
[5] O=C(O)c1nn(-c2ccc(Cl)cc2)ccc1=O
→ 7%	.	-2.3	0.0	.	.	1	.	-3	-2
[6] CCN(CC)CCNC(=O)c1ccc(NC(=O)c2cc(-c3ccncc3)nc3ccccc23)cc1
→ 4%	.	.	1.5	.	9.9	.	.	5	.
[7] O=C1CSC(=S)N1/N=C/c1cc(Br)c(O)c(Br)c1
→ 23%	.	-18	-0.1	.	.	0	.	-1	-3
[8] Cc1ccc(C(=O)Nn2cnnc2)cc1[N+](=O)[O-]
→ .	8	3.6	0.3	11	4.6	-6	-4.8	2	-25
[9] COc1ccccc1NC(=O)C(=O)NCC(c1ccco1)N1CCc2ccccc21 (stereo unspecified)
→ -2%	7	0.6	-0.1	8	0.1	35	2.1	-3	45
[10] CN1CCN(c2cc(-c3ccccc3)nc3cc(-c4ccc(F)cc4)nn23)CC1
→ 32%	.	0.3	0.8	.	.	7	.	12	35
[11] Cc1cccc2c(=O)cc(C)n(CC(N)=O)c12
→ 5%	-22*	0.7	-0.7	-28*	.	5	-6.8*	11	-2
[12] CCN1CCc2c(sc(NC(=O)Cc3ccccc3)c2C(=O)OC)C1
→ .	5	42*	0.3	1	4.6	1	3.0	0	31
[13] O=C(NCc1cccc(F)c1)C1CCC(=O)N(C2CC2)C1 (stereo unspecified)
→ .	3	-0.4	0.3	9	-1.8	-3	15	3	-14
[14] COC(=O)CN1CCN(C(c2ccccc2)c2ccccc2)CC1
→ -1%	.	1.9	-0.1	.	.	-21	.	-1	-5
[15] Cc1cccc(N(CC(=O)NC2CCCC2)C(=O)CS(=O)CC(=O)Nc2ccc3c(c2)OCO3)c1 (stereo unspecified)
→ -1%	.	-4.6	.	.	.	-6	.	.	15

Some of the entries above, set out differently.
item	Molecule	Vif A3G	rRNA inh HTS OD600	RanGTP-Impb inh	Bfl-1 A1 inh	rRNA inh HTS	AF4-AF9 inh	Calb FLC	rRNA inh HTS RFP	Beta apoptosis	T cruzi inh
2	Cn1c(C(=O)N2CCC(C(=O)N3CCOCC3)CC2)cc2sccc21	3%	13	4.3	0.4	15	5.1	5	2.2	-4	3
3	CCOC(=O)c1cnn(-c2nc(-c3ccc(F)cc3)cs2)c1C(F)(F)F	-7%	.	5.5	1.1	.	.	4	.	-4	15

(more compounds)
Values in the order – Vif A3G	rRNA inh HTS OD600	RanGTP-Impb inh	Bfl-1 A1 inh	rRNA inh HTS	AF4-AF9 inh	Calb FLC	rRNA inh HTS RFP	Beta apoptosis	T cruzi inh
[16] CC1CCCN(C(=O)COC(=O)c2ccc[nH]c2=O)C1 (stereo unspecified)
→ 1%	.	5.3	0.8	.	.	23	.	6	-17
[17] COC(=O)c1cccc(C23CC4(C2)[C@H](CN(Cc2cccnc2)[C@@H]4c2ccccc2)C3c2ccc(C(F)(F)F)cc2)c1 (stereo partly specified)
→ 11%	.	-1.4	-0.1	.	.	7	.	-3	40
[18] COc1ccc(C2c3c(oc4ccccc4c3=O)C(=O)N2c2ccc(C)cn2)cc1OC (stereo unspecified)
→ -7%&-13%	5	1.0	1.7	10	0.9	-4	6.0	-1	35
[19] COc1ccc2c(c1)O[C@H]1c3ccc(O)cc3OC[C@@H]21
→ .	.	-3.8	0.0	.	2.5	6	.	-5	-8
[20] O=C(/C(=N/N=C/c1ccc(O)c(O)c1O)c1ccccc1)c1ccccc1
→ 3.1µM*	-16	1.3	-0.6	-7	23	?	3.8	-5	6
[21] Cc1ccccc1CC(=O)N1CC(C)OC(C)C1 (stereo unspecified)
→ .	12	-2.4	0.4	12	0.4	-4	10	2	0
[22] O=C1C(Cl)=C(NCCc2ccccc2)C(=O)N1CCc1ccccc1
→ 6%	.	?	-3.0	.	.	-3	.	1	29
[23] O=[N+]([O-])c1ccccc1SN(Cc1ccccc1)c1ccccn1
→ 1%	-8	2.6	-0.1	-4	14	3	-1.9	-10	-11
[24] O=C(Nc1nc(-c2cccs2)c(-c2cccs2)s1)C1(c2ccccc2)CC1
→ .	10	-6.5	0.9	4	-2.3	-20	-2.5	-1	16
[25] CCC1(c2ccc(Cl)cc2)NC(=S)N(c2ccccc2)N1 (stereo unspecified)
→ .	7	-0.8	0.3	9	-13	117*	-11	-4	9
[26] CCC1CCCCN1CCCNC(=O)c1cn(CC(C)C)c(=O)c2cc(OC)c(OC)cc12 (stereo unspecified)
→ -11%	.	-1.7	-1.1	.	.	-8	.	-3	13
[27] CCN1C(=O)/C(=C/c2ccc(C)s2)NC1=S
→ 20%	.	2.2	-0.2	.	.	-5	.	-10	34
[28] O=C(CSc1nccn1Cc1ccccc1)NC1CCCC1
→ 5%	-14	-2.8	0.5	-15	-0.4	-1	2.3	7	-8
[29] Cc1ccc(NC(=O)/C=C\C(=O)O)c([N+](=O)[O-])c1
→ 76%	.	-4.1	0.4	.	.	-4	.	-2	0
[30] COc1ccc(C2CCN(CC(=O)N(C)C)CC2O)cc1 (stereo unspecified)
→ -9%	6	1.6	-0.3	7	1.7	14	-1.4	-1	-21

Later entries.
Values in the order – Vif A3G	rRNA inh HTS OD600	RanGTP-Impb inh	Bfl-1 A1 inh	rRNA inh HTS	AF4-AF9 inh	Calb FLC	rRNA inh HTS RFP	Beta apoptosis	T cruzi inh
[31] Cc1cc(C)cc(C(=O)NCC(=O)OCC(=O)Nc2ccc(C)cc2Br)c1
→ 6%	10	-3.5	1.8	7	-1.8	4	0.5	1	-11
[32] COc1ccccc1N1CCN(C(=O)c2ccncc2)CC1
→ 10%	.	2.6	0.2	.	.	-2	.	-12	-1
[33] Cc1c(Cl)cccc1NC(=S)N1CCOCC1
→ -6%	8	.	-0.1	9	-0.5	-1	-2.9	-23	0
[34] COc1ccc2c(C)cc(SCC(=O)Nc3cccnc3Cl)nc2c1
→ -249%	-3	0.0	1.1	-2	0.6	-4	-2.0	7	11
[35] O=C(CSc1nnc(-c2ccncc2)n1Cc1ccco1)N1c2ccccc2Sc2ccc(Cl)cc21
→ 3%	.	-1.3	0.3	.	.	-7	.	9	50
[36] Cn1c(=O)[nH]c(=O)c2c1nc(N1CCN(c3cccc(Cl)c3)CC1)n2CCCc1ccccc1
→ -4%	.	-0.5	.	.	.	-7	.	.	-3
[37] COC(=O)CSc1nnc(-c2ccco2)n1Cc1ccco1
→ 2%	.	1.0	0.5	.	.	1	.	-5	-7
[38] COc1ccc(/C=C/C(=O)O/N=C(\N)c2ccccc2)cc1OC
→ .	-10	2.1	-1.7	-20	0.6	2	-1.9	0	-1
[39] O=C(CC(=O)c1ccccc1)Nc1ccc2c(c1)OCCO2
→ -1%	.	?	-10	.	.	-7	.	1	-10
[40] CC(C)N(Cc1ccccc1)C(=O)COC(=O)c1ccccc1SCC(=O)N1CCCC1
→ 0%	-13	-1.9	0.0	-3	1.0	.	-0.1	5	-11
[41] CC(C)OC(=O)c1c(NC(=O)c2cnn3c2NC(c2ccccc2)CC3C(F)(F)F)sc2c1CCCC2 (stereo unspecified)
→ -2%	.	2.3	0.0	.	.	-3	.	6	-7
[42] OCCN(CC#CCn1c2ccccc2c2ccccc21)CCO
→ 12%	-23*	0.0	0.5	-29*	5.4	16	0.6*	-1	-24
[43] O=C(c1ccco1)N1CCN(C(=O)c2cc(-c3ccc(F)cc3)no2)CC1
→ .	-4	-0.7	-0.1	-5	1.6	1	-2.7	-4	2
[44] Cc1cc(C)n(-c2nc3c(c(=O)[nH]c(=O)n3C)n2Cc2ccccc2)n1
→ 2%	.	0.7	0.5	.	.	-1	.	-16	1
[45] CCn1cc([N+](=O)[O-])c(C(=O)NCc2ccc(Cl)cc2)n1
→ -10%	-4	8.6	0.5	2	-1.1	-21	-2.6	3	-3

Next part
Values in the order – Vif A3G	rRNA inh HTS OD600	RanGTP-Impb inh	Bfl-1 A1 inh	rRNA inh HTS	AF4-AF9 inh	Calb FLC	rRNA inh HTS RFP	Beta apoptosis	T cruzi inh
[46] C=CCN(C#N)c1nc(OC)nc(N2CCCC2)n1
→ 2%	.	8.7	-0.1	.	.	-4	.	-5	5
[47] Cc1occc1C(=O)NN=C1C2CC3CC(C2)CC1C3
→ 3%	.	-0.3	-0.6	.	.	-6	.	1	-5
[48] CCn1c(SCC(=O)N2CCCCC2)nc(O)cc1=O
→ 6%	.	-5.1	0.4	.	.	-4	.	-7	-10
[49] CCn1nnc2cc(C(=O)O)ccc21
→ ?	4	-2.4	0.3	12	-9.9	12	5.7	-8	-1
[50] C=CCN1C(c2ccccc2)=CS/C1=C(/C#N)c1nnc(N2CCOCC2)n1-c1ccccc1
→ -1%	-3	0.5	0.6	0	5.8	-6	-1.4	-4	10
[51] CCN(CCNC(=O)CC1Oc2ccccc2NC1=O)c1ccccc1 (stereo unspecified)
→ 0%	-3	5.8	0.4	-4	-0.1	-5	4.2	4	5
[52] NS(=O)(=O)c1ccc(CCNS(=O)(=O)c2ccc(Cl)cc2)cc1
→ 7%	2	3.3	0.1	-4	-1.0	6	-0.4	3	-8

As entered above:
Under rRNA inh HTS, NS(=O)(=O)c1ccc(CCNS(=O)(=O)c2ccc(Cl)cc2)cc1 has -4
Under Beta apoptosis, CCn1c(SCC(=O)N2CCCCC2)nc(O)cc1=O has -7
Under Vif A3G, Cc1occc1C(=O)NN=C1C2CC3CC(C2)CC1C3 has 3%

Bioassay records: PubChem, several laboratories

Not all compounds are listed (hit frequency here may not be typical).
